# KCNQ2 enhance – enhances the rat KCNQ2 potassium channel. O88943. CHO-K1 KCNQ2, FluxOR thallium flux fluorescence; hits give high values. B-score at 10 µM. 310,000 tested, 0.54% active. AID 2239;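 active means fluorescence ratio B-score at least 3 SD of library B-scores, with initial fluorescence B-score within 3 SD, cut at about 5.3 in these data; same plate scores as AID 2156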;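 further: B-score of peak minus minimum over baseline fluorescence ratio after K+ and Tl+ stimulus; positive B-score means potentiation of KCNQ2 with more thallium influx and brighter signal; only the inactives scoring about 0 or higher are listed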
# Target sequence (O88943 whole entry, looked up): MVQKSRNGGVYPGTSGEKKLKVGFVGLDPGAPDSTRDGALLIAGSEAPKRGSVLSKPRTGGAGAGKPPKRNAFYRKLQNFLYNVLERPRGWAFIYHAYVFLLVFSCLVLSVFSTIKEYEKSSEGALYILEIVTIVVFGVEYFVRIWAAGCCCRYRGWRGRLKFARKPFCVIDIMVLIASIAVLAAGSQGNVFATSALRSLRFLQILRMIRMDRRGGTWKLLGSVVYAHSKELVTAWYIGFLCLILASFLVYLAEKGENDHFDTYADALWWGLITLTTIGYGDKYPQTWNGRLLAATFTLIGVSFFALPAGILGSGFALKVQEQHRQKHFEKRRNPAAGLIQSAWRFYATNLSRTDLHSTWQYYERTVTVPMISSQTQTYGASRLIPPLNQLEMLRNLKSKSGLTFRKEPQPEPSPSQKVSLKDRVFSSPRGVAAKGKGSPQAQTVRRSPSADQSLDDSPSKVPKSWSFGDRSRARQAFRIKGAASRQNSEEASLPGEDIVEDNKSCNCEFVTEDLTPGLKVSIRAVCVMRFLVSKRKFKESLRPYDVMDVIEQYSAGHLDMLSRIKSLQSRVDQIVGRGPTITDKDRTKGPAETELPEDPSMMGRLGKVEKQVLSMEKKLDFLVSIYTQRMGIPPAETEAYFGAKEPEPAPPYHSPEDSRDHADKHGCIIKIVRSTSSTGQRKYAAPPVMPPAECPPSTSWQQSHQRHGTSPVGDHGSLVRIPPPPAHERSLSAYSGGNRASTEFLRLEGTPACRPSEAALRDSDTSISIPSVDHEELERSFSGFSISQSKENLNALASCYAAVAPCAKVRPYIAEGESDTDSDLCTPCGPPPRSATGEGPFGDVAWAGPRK
# KCNQ2 enhance baseline – further read-out of KCNQ2 enhance, marked with its call; B-score; compound at 10 µM; measured here: initial fluorescence intensity artifact check;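 brightness before thallium and not channel activity; 0 = typical well and far values either way flag optical interference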
# Numbers without * were called inactive. Not all compounds are listed; count on the stated rates, not on these rows.
# Fields: KCNQ2 enhance | KCNQ2 enhance baseline
O=C(O)C1Nc2c(Cl)cc(Cl)c(Cl)c2C2C=CCC12 (centres undefined)
→ 2.1 | -2.2
O=C(c1cccc([N+](=O)[O-])c1)N1CCCN(C(=O)c2cccc([N+](=O)[O-])c2)CC1
→ 1.6 | 0.5
Cc1ccc(S(=O)(=O)NN2C(=O)/C(=C/c3ccc(F)cc3)SC2=S)cc1
→ 1.3 | 0.24
CC(CN1C(C)CCCC1C)OC(=O)c1ccc(Cl)cc1 (centres undefined)
→ 2.4 | -0.22
CCCCC(=O)N/N=C/c1sccc1C
→ 0.02 | 0.9
CCOC(=O)c1ccc(N/C=C/C(=O)c2ccc(OC)cc2)cc1
→ 0.02 | -0.18
O=C(COc1ccc2ccc(=O)oc2c1)Nc1nccs1
→ 1.7 | 0.1
NC(=O)c1cc(-c2cccnc2)nc2ccc(Br)cc12
→ 0.62 | 2.1
CC(C)OCCCNC(=O)c1c(N)n(/N=C/c2ccccn2)c2nc3ccccc3nc12
→ 1.4 | 0.46
CCC(C)(C)NC(=O)c1ccc2c(c1)S(=O)(=O)c1ccccc1C2=O
→ 0.76 | -0.21
CCC(C)(NC(=O)CNC(C)=O)C(=O)NC1CCCCC1 (centres undefined)
→ 0.14 | -1.6
COc1ccc2c(c1)SCCC2=O
→ 1.2 | -0.39
Cc1ccc(C(C)NC(=O)C2CCCO2)cc1C (centres undefined)
→ 0.75 | 1.2
Cc1ccc(CCNC(=O)CN2C(=O)COc3ccc(S(=O)(=O)N4CCOCC4)cc32)cc1
→ 0.21 | -1.8
O=C(N/N=C/C=C/c1ccccc1[N+](=O)[O-])c1cccnc1
→ 0.95 | -1.8
CC(=C1C(=O)c2ccccc2C1=O)N1CCN(Cc2ccccc2)CC1
→ 0.94 | -0.33
Clc1ccccc1OCCCCN1CCCCC1
→ 0.8 | 1.4
O=C(O)c1cccc(NS(=O)(=O)c2ccc(Cl)c(C(=O)Nc3cccc([N+](=O)[O-])c3)c2)c1
→ 1.8 | -1.5
CCSC1=N/C(=C\C=C2/Oc3ccccc3N2CC)C(=O)S1
→ 0.22 | -1.3
CCN(CC)c1cc2nonc2c2nonc12
→ 2.4 | -0.1
CCOC(=O)C1CCN(Cc2c(O)c3ccccc3oc2=O)CC1
→ 0.96 | -0.51
Cc1ccc(-c2nnn(CC(=O)N(CC(=O)NC3CCCCC3)c3cccc(F)c3)n2)o1
→ 0.12 | 0.56
O=C(NOCc1ccccc1)c1ccccc1
→ 0.12 | -0.17
COc1cc(/C=C(/C#N)C(=O)Nc2ccc(C)cc2)ccc1Oc1nc(Cl)ncc1F
→ 0.54 | 0.62
COc1ccc(-n2nc3c(N4CCC(C(=O)NCc5cccc(C)c5)CC4)nnc(C)c3c2C)cc1
→ 0.02 | -1.3
CCN(CC(=O)Nc1ccc(NC(C)=O)cc1)C(=O)COc1ccccc1Cc1ccccc1
→ 0.05 | 0.01
CCOc1ccccc1C(c1c(C)n(C)n(-c2ccccc2)c1=O)c1c(C)n(C)n(-c2ccccc2)c1=O
→ 0.02 | -0.05
CSc1oc(-c2ccc(F)cc2)nc1S(=O)(=O)c1ccccc1
→ 0.47 | 0.7
Cc1cc(C(=O)NCc2cccs2)ccc1[N+](=O)[O-]
→ 0.04 | 0.27
CC(C)C(NC(=O)c1ccccc1)C(=O)OCc1cc([N+](=O)[O-])cc2c1OCOC2 (centres undefined)
→ 0.32 | -0.6
Cc1ccc2nc(C)c(C)nc2c1N
→ 0.61 | 0.83
COC(=O)c1ccc(NC(=S)NC(=O)c2cc(-c3ccccc3)nc3ccccc23)cc1
→ 2.3 | -0.62
CCOC(=O)N1CCN(C(=O)Cc2c(C(=O)O)n(C)c3ccccc23)CC1
→ 0.92 | -1.2
CCCCCc1cccnc1
→ 1.1 | -0.38
c1ccc(C(c2ccccc2)N2CCN(Cc3nc(-c4cnccn4)no3)CC2)cc1
→ 0.61 | -1.2
Cc1c(NC(=S)N/N=C/c2ccc([N+](=O)[O-])cc2O)c(=O)n(-c2ccccc2)n1C
→ 0.55 | -0.28
COc1cccc(C(=O)NNC(=O)C(=O)Nc2ccc(OC)cc2OC)c1
→ 5 | 0.49
CCN(CC)CCCN(C(=O)c1ccc(F)cc1)c1nc(-c2ccc(OC)cc2)cs1
→ 1.2 | -0.66
COc1ccc(N2CCN(/C(=N\S(=O)(=O)c3ccc(C)cc3)Nc3nc(C)cc(C)n3)CC2)cc1
→ 0.9 | -0.08
COc1cc(C)ccc1OCCCCNCc1ccccc1
→ 0.05 | 0.61
CCc1ccc(C(=O)NC(=S)Nc2ccc(N3CCOCC3)cc2)cc1
→ 0.2 | 0.02
COc1cccc(/C=C/C(=O)OCC(=O)N2CCN(S(=O)(=O)c3ccc(Cl)cc3)CC2)c1
→ 2 | 0.04
CCn1c(N)c(C(N)=O)sc1=S
→ 0.97 | -0.53
Cc1ccc(CSc2ncnc3ccccc23)cc1
→ 0.15 | 1.8
COc1ccc(CN2CC(C(=O)NCCCN3CCCCCC3)CC2=O)cc1 (centres undefined)
→ 1.3 | 0.46
C=CCN=C(NC#N)SCC(=O)NC(C)(C)C
→ 0.3 | 0.77
Cc1ccc(CSCCNC(=O)CN(c2cc(C)ccc2C)S(C)(=O)=O)cc1
→ 0.5 | -1
O=C(O)C(Oc1ccc2c3c(c(=O)oc2c1)CCC3)c1ccccc1 (centres undefined)
→ 0.47 | -0.76
O=C(NC(=S)NCc1ccco1)c1ccccc1[N+](=O)[O-]
→ 0.14 | 0.29
COc1ccc(N(CC(=O)N/N=C/c2ccc3c(c2)OCO3)S(=O)(=O)c2ccc(NC(C)=O)cc2)cc1
→ 0.3 | -3.5
NC(=O)c1cc2ccccc2o/c1=N\NC(=O)c1ccco1
→ 0.06 | 0
COc1ccc(NS(=O)(=O)c2ccc3c(c2)n(C)c(=O)n3C)cc1
→ 2.3 | 1.5
CCCC1=[N+](CC)CCn2c(C)ccc21
→ 0.34 | 0.01
O=C(CCCN1C(=O)/C(=C/c2cccs2)SC1=S)NNC(=O)c1cccnc1
→ 0.93 | 0.02
CC(C)c1noc2ncc(C(=O)c3cc(Cl)cc(Cl)c3O)cc12
→ 2.1 | -1.9
O=C(CCCn1c(=O)c2cccn2c2cccnc21)NCc1cccc(Br)c1
→ 0.65 | 1.5
Cc1ccc(C)c(NS(=O)(=O)c2ccc3[nH]c(=O)[nH]c3c2)c1
→ 1.2 | 1.1
Cc1nc(COc2cc3oc(=O)cc(C)c3cc2Cl)cs1
→ 0.22 | -3.4
CCN(CC(=O)Nc1ccc2c(c1)OCCO2)C(=O)c1ccc(S(=O)(=O)N(C)C)cc1
→ 0.13 | -0.45
CCOC(=O)C1=C(CSc2nc(-c3ccccc3)ccc2C#N)OC(N)=C(C#N)C1c1ccc(OC)cc1 (centres undefined)
→ 1.4 | 0.88

# Next part:
# Fields: KCNQ2 enhance | KCNQ2 enhance baseline
COc1ccc(CCNC(=O)CCNC(=O)c2ccco2)cc1
→ 0.39 | -0.14
O=C(N/N=C1/CC2C=CCC12)c1ccc(Br)o1 (centres undefined)
→ 0.01 | 1.8
O=C1COc2ccc(S(=O)(=O)Nc3ccc(OC(F)(F)F)cc3)cc2N1
→ 1.5 | 1.5
CS(=O)(=O)N1CCC(C(=O)NCc2ccc3c(c2)OCO3)CC1
→ 1.1 | 0.32
COc1ccc(CNc2ncc(-c3cccc([N+](=O)[O-])c3)n2C)c(OC)c1OC
→ 1.4 | 0
CCOc1cc2c(cc1/C=C(/C#N)c1ccc(C(=O)O)cc1)OCO2
→ 0.02 | -1.6
O=C(CNc1ccc(C(F)(F)F)cc1[N+](=O)[O-])OCC(=O)c1ccccc1
→ 0.94 | -0.52
COC(=O)C(O)(CC(=O)Nc1ccccc1OC)C(F)(F)F (centres undefined)
→ 0.74 | -1.9
CCc1cc(C(=O)NC2CCCN(Cc3ccccc3F)C2)n(C)n1 (centres undefined)
→ 0.05 | -0.28
Cc1ccc([N+](=O)[O-])c(OCCCNCC(C)O)c1 (centres undefined)
→ 0.09 | 0.41
Cc1ccc(S(=O)(=O)N2CCOCC2)cc1C(=O)NNC(=O)c1ccoc1C
→ 0.15 | -0.47
CC(=O)c1cc2c(cc1N/C(=N/S(=O)(=O)c1ccccc1)c1ccc(Cl)cc1)OCO2
→ 0.41 | -0.71
CCCCCCSc1cc(C)nc2ncnn12
→ 1.9 | -1.2
Cc1ccc(NC(=O)Nc2ccnc(-c3cccnc3)n2)cc1
→ 1.1 | -0.03
CC(C)(C)c1cc(C(=O)NCc2cccnc2)ccn1
→ 1.2 | 1.5
C/C(CCC12CC3CC(CC(C3)C1)C2)=N\NC(N)=S
→ 0.19 | -0.32
O=C(Nc1cccc(F)c1)c1ccc(S(=O)(=O)N2CCOCC2)cc1
→ 0.22 | -0.04
O=C(Cc1cccc2ccccc12)Nc1ccc(N2CCOCC2)cc1
→ 1.3 | -0.41
O=C(COc1ccc(S(=O)(=O)N2CCCC2)cc1)NCC1CCCO1 (centres undefined)
→ 1.1 | 1.1
Cc1ccc(NC(=O)c2cc(=O)[nH]c3ccccc23)cc1
→ 0.07 | 1.2
COc1ccc(NC(=O)[C@@H](NC(=O)c2ccccc2F)C(C)C)cc1S(=O)(=O)N1CCOCC1
→ 0.05 | -1.6
Cc1cccc(OCC(=O)NCC(=O)n2nc(C)cc2C)c1
→ 1.9 | 0.17
Cc1ccc(C(=O)NC2CC3CCCC(C2)N3Cc2ccccc2)cc1 (centres undefined)
→ 0.1 | -1.4
Cc1ccc(N(C(=O)Cn2nnc(-c3ccc(F)cc3)n2)C(C(=O)NC(C)(C)C)c2ccncc2)cc1 (centres undefined)
→ 0.25 | -0.01
COc1ccccc1N1CCN(C(=O)/C=C/c2ccco2)CC1
→ 0.01 | -0.86
CC12CN(NC(=O)c3ccc(Cl)cc3)C3(C#N)CC1CCC23C (centres undefined)
→ 0.56 | -0.23
COc1ccc(S(=O)(=O)N2CCN(Cc3cc(OC)c(OC)cc3OC)CC2)cc1
→ 0.13 | -0.78
CCN(CC(=O)NCCCN1CCOCC1)S(=O)(=O)c1ccc(Cl)cc1
→ 0.04 | 1.7
Cc1ccc(Cn2ccc(-c3cnc(-c4ccccc4)s3)n2)cc1
→ 1 | -0.15
CCCCn1c(N)c(N(CCOC)C(=O)c2sc3cc(F)ccc3c2Cl)c(=O)[nH]c1=O
→ 2.3 | -0.37

# 3 of the entries above in order of their number in KCNQ2 enhance, rising.
# Fields: KCNQ2 enhance | KCNQ2 enhance baseline
Cc1ccc(NC(=O)c2cc(=O)[nH]c3ccccc23)cc1
→ 0.07 | 1.2
O=C(Cc1cccc2ccccc12)Nc1ccc(N2CCOCC2)cc1
→ 1.3 | -0.41
CCCCn1c(N)c(N(CCOC)C(=O)c2sc3cc(F)ccc3c2Cl)c(=O)[nH]c1=O
→ 2.3 | -0.37

# Copied from the list:
# KCNQ2 enhance baseline result of O=C(CNc1ccc(C(F)(F)F)cc1[N+](=O)[O-])OCC(=O)c1ccccc1 → -0.52
# KCNQ2 enhance baseline result of CCCCC(=O)N/N=C/c1sccc1C → 0.9

# New compounds follow:
# Fields: KCNQ2 enhance | KCNQ2 enhance baseline
COc1ccc(-n2nc3c(c2NC(=O)C(C)Cl)CSC3)cc1 (centres undefined)
→ 1.9 | -0.34
NC1=NC(=Nc2cccc(Cl)c2)c2ccccc21
→ 0.21 | -0.4
Cc1nc(C(=O)NNC(=O)Nc2ccccc2)cs1
→ 0.23 | -0.07
COc1ccc(NC(=O)CSc2ncn[nH]2)c([N+](=O)[O-])c1
→ 2.1 | 0.09
O=C(N/C(=C\c1ccc(Br)cc1)c1nc2ccccc2[nH]1)c1ccco1
→ 0.01 | -1.8
Cn1c(=O)cc(SCC(=O)N2CCN(C3CCCCC3)CC2)c2ccccc21
→ 1.5 | -1.4
COc1ccc(C)cc1S(=O)(=O)n1cnc2ccccc21
→ 0.21 | 0.32
Cc1cccc(C)c1NCc1nnc(SCC(=O)Nc2nc(-c3ccccc3)cs2)n1-c1ccccc1
→ 0.03 | -1.2
CCN(CC)CCCN=C(N)N
→ 2 | -0.24
COc1ccc(C(=O)N/C(=C\c2cn(C)c3ccccc23)C(=O)NCCCn2ccnc2)cc1OC
→ 0.37 | 1
O=C(Nc1ccc2c(c1)OCCO2)c1ccc(Cl)c(S(=O)(=O)N2CCOCC2)c1
→ 1.4 | 0.37
COC(=O)C1=C(C(=O)c2ccccc2)C(c2cccs2)n2nnnc2N1 (centres undefined)
→ 0.4 | 1.2
COC(=O)Cc1c(C)c2ccc(O)c(CNCc3ccc(OC)c(OC)c3)c2oc1=O
→ 0.23 | 1.6
OC(COc1ccc(OCC(O)CN2CCCCC2)cc1)CN1CCCCC1 (centres undefined)
→ 0.21 | 0.5
COC(=O)NC1CSCC1OC(=O)c1ccc(Br)cc1 (centres undefined)
→ 0.33 | 0.2
Cc1cc2cc(CNC(=S)Nc3ccc(OC(F)F)cc3)ccc2[nH]1
→ 1.4 | 1.9
CC(=O)c1c(C)[nH]c(C(=O)Nc2c(C)n(C)n(-c3ccccc3)c2=O)c1C
→ 0.38 | 1.6
C[C@@H]1C(=O)O[C@@H]2CC34[C@H]5C[C@@H](C(C)(C)C)C36[C@H](OC(=O)[C@@H]6O)OC4(C(=O)O5)[C@@]12O (some centres undefined)
→ 1.5 | -0.13
Cc1ccc(C(=O)NCCCN2CCOCC2)o1
→ 0.64 | 0.01
COc1ccc(OCC(=O)Nc2ccc(NC(=O)c3cccs3)cc2)cc1
→ 1.1 | -0.4
Cc1ccc(S(=O)(=O)NC2=NCN(CC(=O)O)CN2)cc1
→ 0.74 | 1.2
O=C(COC(=O)c1cnccn1)c1ccc(Br)cc1
→ 0.18 | 2
COc1ccc(-c2nn(C)c(=O)c3ccccc23)cc1CNC(=O)C1CCCCC1
→ 1.7 | -0.21
CCn1nnc(-c2ccccc2NC(=O)c2cc(OC)c(OC)c(OC)c2)n1
→ 1.2 | -1.9
CCOc1ccc2cc(S(=O)(=O)N3CCOCC3)ccc2c1
→ 0.34 | -2.4
COc1ccc(OC)c(C2C(C(C)=O)=C(O)C(=O)N2c2ccc(F)cc2)c1 (centres undefined)
→ 0.06 | -0.77
